Bioassay records (PubChem BioAssay)
Vaccinia Venus: inhibitors of vaccinia virus (Venus reporter); Vaccinia virus Venus reporter expression, fluorescence; Potency, µM (series often up to 36.5 µM), for the others: top-dose activity change, negative = inhibition, actives largely listed as inhibitors; hit rate 0.46% among 330,000; AID 720580; active means well fitted inhibition curve with a large enough effect; inconclusive means small, poorly fitted or top-dose-only effect; inactive means no such curve, though single readings can be large or run the other way; tested in A549 cells; also: nearly all actives have a fitted effect of over 30% in size; inactives centre near -10
VACV mCherry inh: inhibitors of vaccinia virus infection (mCherry reporter signal). Vaccinia virus mCherry reporter infection, fluorescence; about a quarter of the inactives have no number. Potency, µM (top dose mostly 36.5 µM), for inactives: at the highest dose activity change, negative = inhibition, usual class: inhibitors. hit rate 0.63% among 310,000. AID 720579; active = well fitted inhibition curve with a large enough effect; inconclusive = small, poorly fitted or top-dose-only effect; inactive = no such curve, though single readings can be large or run the other way; tested in A549 cells; also: nearly all actives have a fitted effect of over 35% in size; inactives centre near -10
An asterisk follows results filed as active; i = inactive; ? = inconclusive; · = not tested or not shown; & = joins results of further samples; [ ] = another dose, or the depositor's remark. % is scaled to controls: 0 for no effect and ±100 for the full control effect; potency is read from the fitted curve at half-maximal effect.

SMILES	Vaccinia Venus	VACV mCherry inh
Cc1nn(-c2ccccc2)c(N)c1Sc1ccc([N+](=O)[O-])cc1	-8.5%	i
CC(=O)C(Cc1ccccc1)NC(=O)COc1ccc2c(c1)OCO2 (configuration not stated)	-6.2%	i
O=C(NC1(C(F)(F)F)NC(=O)N(Cc2ccccc2)C1=O)c1cccnc1 (configuration not stated)	-6.5%	·
C=C1CN(Cc2ccccc2)S(=O)(=O)c2ccccc21	-5.8%	i
O=Cc1c(F)cccc1N1CCCC1	-11.3%	-3.3%
COc1ccc(S(=O)(=O)N2CCOC2CNC(=O)C(=O)NCCc2c[nH]c3ccccc23)cc1 (configuration not stated)	-18.3%	-10.1%
COC(=O)C(Cc1ccc(OC(=O)c2ccc(Cl)cc2)cc1)N1Cc2ccccc2C1=O (configuration not stated)	-12.8%	·
CC(=O)Nc1ccc(NC(=O)c2cc(-c3ccc4c(c3)OCCO4)on2)cc1	-15.4%	i
Nc1cc2nc3ccccc3nc2cc1N	2.0%	-7.1%
Cc1ccc(CCN2CC(C(=O)NCc3ccc4c(c3)OCO4)CC2=O)cc1 (configuration not stated)	-7.5%	i
CC1CCN(S(=O)(=O)c2cccc(C(=O)Nc3nncs3)c2)CC1	-5.4%	i
CCOc1cc(/C=N/NC(=O)CN2CCOCC2)ccc1OCc1ccc(Cl)cc1	-24.0%	-24.9%
C=CCn1c(C)c(C(=O)OCC)c2cc(O)c3ccccc3c21	-5.1%	-23.8%
CCOC(=O)N1CCN(S(=O)(=O)Cc2ccccc2)CC1	10.2%	·
COc1ccc(-c2nnc(SCC(=O)Nc3nncs3)o2)cc1	-0.4%	-5.4%
CCOC(=O)c1cc2c(=O)n3ccccc3nc2n(CC2CCCO2)c1=NC(=O)c1ccccc1F (configuration not stated)	2.2%	-12.8%
CCCS(=O)(=O)N1CCN(Cc2ccccc2C(F)(F)F)CC1	-15.5%	i
CS(=O)(=O)N1CCC(Oc2cccc(C(=O)NCCCOc3cccnc3)c2)CC1	-7.8%	-11.2%
CCS(=O)(=O)Nc1ccc2[nH]c(=O)[nH]c2c1	3.2%	-5.9%
Cc1ccc(NC(=O)CSc2nc(=O)n(CCCN3CCOCC3)c3c2CCCC3)c(C)c1	-14.1%	-15.5%
Cc1c(Cl)cccc1NC(=O)Cn1c(=O)nc(-c2ccccc2)c2ccccc21	-22.4%	i
O=C(CCl)N1c2ccccc2Sc2ccc3ccccc3c21	10µM*	?
CC(C)c1ccc(C(=O)N2CCCC(c3cc(C(=O)Nc4ccccc4Cl)no3)C2)cc1 (configuration not stated)	?	?
Clc1ccc(SCNc2ccccc2Cl)cc1	-27.9%	-17.8%
CCOc1ccccc1N1CC(C(=O)NNC(=O)c2ccc(F)cc2)CC1=O (configuration not stated)	-16.5%	-14.8%
O=C(Nc1ccc2oc(-c3ccccc3)nc2c1)c1cccs1	-24.6%	-22.5%
NC(=O)N/N=C/c1cn(-c2ccccc2)nc1-c1cccs1	-13.2%	-10.6%
O=C(c1ccccc1)c1coc2ccc(O)c(CN3CCOCC3)c12	?	?
COc1ccc(CNC(=O)C2CCN(S(=O)(=O)c3c(C)n[nH]c3C)CC2)cc1	-7.5%	·
COCCNC(=O)/C(C#N)=C/c1c(N2CCCCCC2)nc2c(C)cccn2c1=O	-28.0%	-4.5%
CSCCC(C(=O)Nc1c(C)cccc1C)n1c(-c2cnc(C)cn2)nc2ccccc21 (configuration not stated)	-7.0%	-14.4%
O=[N+]([O-])c1ccc2nc[nH]c2c1	-18.4%&-8.9%	-18.7%
Cc1ccc(C2CC(c3ccccc3)=NN2c2ccccc2)o1 (configuration not stated)	-4.7%	-22.3%
CC1CC(C)CN(S(=O)(=O)c2ccc(NC(=S)NC(=O)c3ccccc3)cc2)C1 (configuration not stated)	-3.7%	i
CCCn1c(SCc2nc(-c3cc(OC)ccc3OC)no2)nnc1-c1ccc(Cl)cc1	-11.8%	-7.4%
CCc1ccc(NC(=O)COC(=O)c2ccccc2OCC(=O)N(C)C)cc1	-9.3%	-11.1%

Some values from the list:
CCc1ccc(NC(=O)COC(=O)c2ccccc2OCC(=O)N(C)C)cc1 @ VACV mCherry inh: -11.1%
CCOc1ccccc1N1CC(C(=O)NNC(=O)c2ccc(F)cc2)CC1=O (configuration not stated) @ VACV mCherry inh: -14.8%
CCCn1c(SCc2nc(-c3cc(OC)ccc3OC)no2)nnc1-c1ccc(Cl)cc1 @ Vaccinia Venus: -11.8%
O=C(Nc1ccc2oc(-c3ccccc3)nc2c1)c1cccs1 @ VACV mCherry inh: -22.5%

Retrieved by structure from the entries so far:
SMILES	Vaccinia Venus	VACV mCherry inh
C=CCn1c(C)c(C(=O)OCC)c2cc(O)c3ccccc3c21	-5.1%	-23.8%
CS(=O)(=O)N1CCC(Oc2cccc(C(=O)NCCCOc3cccnc3)c2)CC1	-7.8%	-11.2%
CCOc1ccccc1N1CC(C(=O)NNC(=O)c2ccc(F)cc2)CC1=O (configuration not stated)	-16.5%	-14.8%

Next section:
SMILES	Vaccinia Venus	VACV mCherry inh
Cc1c(Cl)cccc1NC(=O)CCS(=O)(=O)c1ccc2c(c1)CC(=O)N2C	-3.3%	-11.9%
Cc1cccc(CNS(=O)(=O)c2ccc3[nH]c(=O)ccc3c2)c1	-1.0%	4.1%
O=[N+]([O-])c1ccc(S(=O)(=O)NCC(c2ccc3c(c2)OCO3)N2CCOCC2)cc1 (configuration not stated)	-14.8%	-0.4%
O=C(c1ccc(CS(=O)c2ccccc2Cl)o1)N1CCN(c2cccc(Cl)c2)CC1 (configuration not stated)	-26.2%	-9.7%
CCC(=O)NC(NC(=S)Nc1ccccc1Br)C(Cl)(Cl)Cl (configuration not stated)	-18.2%	-3.9%
COC(=O)c1[nH]c2ccc(Cl)cc2c1NC(=O)CN1CCC(C(N)=O)CC1	-16.0%	·
COc1ccc(C(=O)Nc2nc(-c3cccs3)cs2)cc1	-28.5%	-21.1%
C/C(CC(=O)Nc1ccc(Cl)cn1)=N\NC(=O)Cc1cccs1	-6.6%	-11.8%
CC1CCCCC1NC(=O)CSc1ncnc2sccc12 (configuration not stated)	-12.5%	-2.5%
CCCCN(CC(=O)NCc1ccc(Cl)cc1)S(=O)(=O)c1ccc2c(c1)OCCO2	-14.7%	?
Cc1cc2oc(=O)sc2cc1NS(=O)(=O)c1cccc2cccnc12	-6.7%	?
O=C1NCCCCC1(Cl)Cl	-5.4%	-4.4%
C/C(=N\Nc1ccc(C(F)(F)F)cn1)c1ccc(S(=O)(=O)NCc2ccco2)cc1	-4.6%	-11.4%
O=C(N/N=C/C1CCCCC1)c1cc(Cl)ccc1O	2.4%	·
CC(C)CC(=O)NC(NCC1CCCO1)C(Cl)(Cl)Cl (configuration not stated)	-18.7%	·
CCCCCCCCCCCC[n+]1ccc(/C=C/c2c[nH]c3ccccc23)c2ccccc21	467.4%[activator]	54.3%[activator]
Cc1cc2c(cc1C)CSC(c1ccccc1OC(=O)C(C)C)SC2	-16.6%	-21.4%
NC(=O)c1ccc(C2SCC(=O)N2Cc2ccccc2)cc1 (configuration not stated)	-17.1%	·
COCCN1C(=O)C(CC(=O)Nc2ccccc2)SC1=Nc1ccc(OC)cc1 (configuration not stated)	-18.1%	-22.8%
CCN(CC)c1ccc(NC(=O)c2ccccc2Br)cc1S(=O)(=O)Nc1ccccc1OC	-6.0%	-8.6%
CCC(C)(C)NC(=O)C(c1cccn1C)N(Cc1ccc(OC)cc1)C(=O)Cn1nnc2ccccc21 (configuration not stated)	-16.9%	i
Cc1ccc(C)c(N(C(=O)CCC(=O)Nc2cc(C)on2)C(C(=O)NC2CCCC2)c2ccco2)c1 (configuration not stated)	-13.9%	i
CCOC(=O)c1ccc(NC(=O)CN2Cc3ccccc3C2=O)cc1	-10.0%	-12.9%
CCC(C(=O)Nc1cccc(C(=O)O)c1)c1ccccc1 (configuration not stated)	-2.5%	-14.0%
C[C@H]1CN([C@@H](C)CO)C(=O)c2cccc(NC(=O)C3CC3)c2O[C@H]1CN(C)S(=O)(=O)c1cccs1	-6.7%	-7.5%
O=C(O)C(c1ccccc1)C1(O)CCC1 (configuration not stated)	-7.6%	i
Cc1ccc2nc(N3C(=O)C(O)=C(C(=O)c4ccco4)C3c3cccc(O)c3)sc2c1 (configuration not stated)	0.0%	-19.8%
C[C@@H]1CN([C@@H](C)CO)S(=O)(=O)c2ccc(Br)cc2O[C@H]1CN(C)C(=O)Nc1ccc(C(F)(F)F)cc1	?	-14.0%
C=CCN1C(=O)NC(=O)/C(=C/c2c(CCN(C)C(=O)c3ccccc3)cc3c(c2OC)OCO3)C1=O	-6.8%	i
COc1ccc(/C=N/Nc2nc3ccccc3[nH]2)c(OC)c1OC	-4.4%	-23.6%
CC1CCN(Cc2c(C(=O)N/N=C/c3cccc(C(F)(F)F)c3)nnn2-c2nonc2N)CC1	-4.4%	-10.8%
CC1CN(C(=O)COC(=O)c2ccc(S(=O)(=O)N(C)C)cc2)CC(C)O1 (configuration not stated)	3.1%	-9.9%
CCCCOc1ccc(C(=O)NCC(=O)NNC(=O)c2ccco2)cc1	-12.2%	-14.7%
CN(C)c1ccc(C(C(=O)NC2CCCCC2)N(Cc2ccco2)C(=O)c2snc(C(N)=O)c2N)cc1 (configuration not stated)	-5.9%	-14.6%
Cc1c(C)c2c(OCC(=O)N[C@@H](CC(C)C)C(=O)O)cc3c(c2oc1=O)CCC(C)(C)O3	-9.8%	-0.5%
O=C(COC(=O)c1ccccn1)NNC(=O)c1ccc([N+](=O)[O-])cc1	-4.2%	i
COCCn1c(SCC(=O)NCCc2ccccc2)nc2c([nH]c3ccccc32)c1=O	-6.8%	-6.0%
O=C(Nc1nncs1)C12CC3CC(CC(Cl)(C3)C1)C2	-10.0%	-10.9%
C/C(=N\OC(=O)c1c(-c2ccccc2Cl)noc1C)c1ccncc1	-7.7%	-12.1%
CC1(C)CC(=O)C=C(NCCN2CCN(C(=S)NC3CCCCC3)CC2)C1	-2.0%	-18.9%
CCCc1nc2ccccc2c(=O)n1CC(=O)c1ccc(OC)cc1	0.0%	-4.4%
CCOc1ccccc1NC(=O)CCNC(=O)Cn1ccc2ccccc2c1=O	3.5%	-12.8%
CCCCCn1nc(C)c2c(C)cc(=O)[nH]c21	-12.2%	·
COc1ccc(OC)c(NC(=O)COC(=O)c2ccc(S(=O)(=O)N3CCCCC3)cc2)c1	-6.9%	i
COc1ccc(OC)c(NC2=C(Cl)C(=O)N(Cc3ccccc3)C2=O)c1	1.6%	-21.0%
CC(C)Cc1cc(C(=O)N2CCN(c3ccc(F)cc3)CC2)no1	-11.0%	i
CN1CCc2c(sc(NC(=O)c3ccc(S(=O)(=O)N4CCOCC4)cc3)c2C(N)=O)C1	-7.0%	38.3%[activator]
CCNc1nc(C#N)nc(N2CCCCC2)n1	-29.7%	?
O=[N+]([O-])c1cccc(-c2nnn(C34CC5CC(CC(C5)C3)C4)n2)c1	-9.0%	·
O=C1CN(C(=O)COC(=O)c2ccco2)c2ccccc2N1	-7.7%	-15.4%
CCc1ccccc1N(C(=O)c1snc(C(N)=O)c1N)C(C(=O)NCC1CCCO1)c1ccc(OC)c(OC)c1 (configuration not stated)	-10.5%	-14.7%
Cc1ccc(N2C(=O)NC(NC(=O)C(C)(C)C)(C(F)(F)F)C2=O)cc1C (configuration not stated)	-9.0%	-6.3%
COc1ccc(C(=O)NCC(c2cccs2)N2CCc3ccccc32)c(OC)c1 (configuration not stated)	-22.9%	-5.6%
COc1cc(NS(=O)(=O)c2cc(Br)cc3c2N(C(=O)C2CC2)CC3)cc(OC)c1	?	17.8µM*
O=C(COC(=O)c1cccnc1)Nc1ccccc1	-3.9%	·
Cc1ccc(Nc2nc(N3CCOCC3)nc(N3CCOCC3)n2)cc1	-11.7%	-12.3%
CCCCc1ccc(NC(=O)CN(C)CC(=O)Nc2ccccc2Cl)cc1	4.0%	-21.8%
Cc1ccc(C2N(c3cccc(Cl)c3)C(=O)C3CCCN32)o1 (configuration not stated)	-7.6%	-5.3%
Cc1c(CC(=O)NCCCCCC(=O)O)c(=O)oc2cc3occ(-c4ccccc4)c3cc12	-12.2%	i
O=C1[C@H]2[C@H](C=CC[C@H]2C(=O)N2CCOCC2)CCN1Cc1ccc(Cl)c(Cl)c1	-20.8%&-10.4%	?

Full records as entered above. Screens in order: Vaccinia Venus, VACV mCherry inh
Cc1ccc(N2C(=O)NC(NC(=O)C(C)(C)C)(C(F)(F)F)C2=O)cc1C (configuration not stated) is entered as -9.0%, -6.3%
CCCCc1ccc(NC(=O)CN(C)CC(=O)Nc2ccccc2Cl)cc1 is entered as 4.0%, -21.8%

Additional results.
SMILES	Vaccinia Venus	VACV mCherry inh
Cc1ncc([N+](=O)[O-])n1CC(=O)NC(C)(C)C	-20.8%	-14.4%
COc1ccc(-c2noc(CCC(=O)N(C)c3ccccc3C)n2)cc1	-5.8%	-6.0%
O=C(Nc1nc(N2C(=O)c3ccccc3C2=O)n(-c2ccccc2)n1)c1ccc(Cl)cc1	-8.7%	-11.0%
CC(=O)c1ccc(N2CCN(C(=O)CCC(=O)Nc3ccc4nc(N5CCN(C)CC5)cc(C)c4c3)CC2)cc1	?	?
Cc1cc(S(=O)(=O)NCc2ccncc2)c(C)cc1Br	-24.0%	-7.8%
Cc1nnsc1SCCNC(=O)c1c(F)cccc1F	-2.3%	-8.9%
O=C1OCCC1Sc1nc2ccccc2n1-c1ccccc1 (configuration not stated)	-22.3%	·

Compounds as they come (roughly 0.88% active in at least one column).
